Screens as filed in PubChem.
Sa RN4220 lethal = kills Staphylococcus aureus RN4220 | AID 1259311 | inhibition, % (test concentration not listed) | 330,000 tested, 0.33% active | S. aureus RN4220 growth, OD600, 16 h;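 active = z-score of -3 or lower and OD600 up to 0.18 on both plates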;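 also: plate controls were untreated cells for no effect and reference antibiotic for full effect; stock transfer was 100 nL into about 80 µL; one replicate is shown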
Mtb hypoxia rep = Mtb hypoxia fluorescent reporter inhibition | M. tuberculosis hypoxia-regulated fluorescent reporter, fluorescence | fluorescence inhibition, % (no concentration beside the values) | 300,000 tested, 0.1% active;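 active = 35 to 45% if threefold the growth effect, above 45% if 1.5-fold the growth effect; inactive = the rest, general growth blockers included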;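 also: wells of about 50 µL received 100 nL stock; 0% = vehicle wells and 100% = reference inhibitor wells; whole bacteria with a GFP reporter of the hypoxia response; strong numbers were not always called active; many hits fall short of the cut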
ugtP null kill = kills S. aureus RN4220 lacking UgtP | growth inhibition, % (concentration not given with the values) | AID 1259309 | 330,000 tested, 0.54% active | S. aureus RN4220 ugtP deletion, OD600 growth, 16 h; some inactives read as strong as hits;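 active = z-score under -3 and OD600 up to 0.15 on both plates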;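 also: plate controls were untreated wells for no effect and antibiotic for full effect; wells of about 80 µL received 100 nL stock; the first replicate is given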
PrP UTR inh = inhibition of PrP 5' UTR reporter expression. cell-based PrP 5' UTR mRNA reporter, plate reader. inhibition, % (concentration not given with the values). 340,000 tested, 0.35% active. AID 488862;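 active = every replicate at 50% or more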;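 also: 0 = median of the neutral control wells; tested in H4 reporter cells; numbers are from one replicate; inactives centre near -14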
Bead autofluor = compound fluorescence in toxin protease inhibitor counterscreen | fluorescence intensity (no concentration beside the values) | AID 624483 | 360,000 tested, 3.1% active | compound autofluorescence counterscreen, microsphere flow cytometry; hits give high values;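 active = at least 3 SD above the mean of all compounds, about 16000 in these data; inconclusive = too few beads counted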;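 also: 100 nL of 1 mM stock went into each well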
BJeLR viability = BJeLR cell viability loss; 300,000 tested, 0.17% active; BJeLR (HRASV12) viability, CellTiter-Glo ATP luminescence, 48 h; reference of the scale not given here; inhibition, % (no concentration beside the values);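 active = replicate mean above 50%; inconclusive = above 50% but judged a plate artefact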;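 also: 50 nL library stock added to about 25 µL; numbers are from one replicate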
Mtb hypoxia rep growth = recorded beside Mtb hypoxia rep, whose call it bears; growth inhibition, %; measured here: M. tuberculosis growth (absorbance);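 0% = vehicle and 100% = reference antibiotic; read after six days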
The depositor's hits bear a star; ? = inconclusive; · = not tested or not shown.

Order of values – Sa RN4220 lethal	Mtb hypoxia rep	Mtb hypoxia rep growth	ugtP null kill	PrP UTR inh	Bead autofluor	BJeLR viability
COc1ccc(CNC(=O)c2ccc(S(=O)(=O)N3CC(C)CC(C)C3)cc2)cc1OC (stereo not drawn)
  2.8	-7	9	-3	-13	3777	·
Cc1nc2ccccn2c1C(=O)N=Nc1c(O)[nH]c2ccccc12
  7.5	0	-8	3	-21	7857	-9
CC1CCCCC12NC(=O)N(CC(=O)NC1CCCc3ccccc31)C2=O (stereo not drawn)
  0.7	·	·	3	-26	3510	6
CC(=O)N1CCN(CC(=O)NC(=O)Nc2ccc3c(c2)OCCO3)CC1
  2.5	-2	-7	0	-4	?	2
Cc1cc(C)c(NC(=O)NC2CCCCC2)c(C)c1
  1.5	-10	14	-2	-15	2724	-8
COc1ccc(N2CCN(C(C)C(=O)N3CCc4ccccc43)CC2)cc1 (stereo not drawn)
  5.2	1	-15	21	5	3871	-5
C=CCC1c2cccc(C(=O)O)c2C(=O)N1c1cccc(OC)c1 (stereo not drawn)
  5.0	7	15	7	-5	4450	5
Cc1cc(C)nc(SCCC(=O)Nc2cccc3ccccc23)n1
  9.0	7	5	1	-1	2534	-15
CCN(CC)CC(=O)Nc1cc(N(C)C)nc2ccccc12
  2.8	4	10	5	-12	?	1
COC(=O)[C@@H]1C[C@@]2(O)[C@H](O)[C@H](O)[C@H](O)C[C@H]2N1CC(c1ccccc1)c1ccccc1
  ·	·	·	·	-7	3028	-1
CCOc1ccc(C(=O)Nc2ccc(Cl)cn2)cc1Cl
  13	5	12	8	-222	9951	5
OC(c1cccs1)(c1cccs1)C1C[N+]2(CF)CCC1CC2 (stereo not drawn)
  3.1	5	8	3	7	5773	3
CC1(C)CC(=O)C(Br)=C(O)C1
  5.0	12	-2	0	-6	3975	·
CCCCNC(=O)c1ccc2c(c1)N(CC)C(=O)c1ccccc1S2(=O)=O
  -8.2	3	14	-7	-14	6061	8
COc1ccc(C(=O)COC(=O)C2CCN(c3ccc(C(F)(F)F)cn3)CC2)c(OC)c1
  1.5	0	-7	12	-17	?	·

The list continues.
Order of values – Sa RN4220 lethal	Mtb hypoxia rep	Mtb hypoxia rep growth	ugtP null kill	PrP UTR inh	Bead autofluor	BJeLR viability
CC(=O)c1ccc(N2CCN(S(=O)(=O)c3ccc4c(c3)CC(=O)N4C)CC2)cc1
  3.0	13	3	7	-38	4564	-1
CCC(=O)Nc1cccc(NC(=O)CSc2nnc(-c3ccc(NS(C)(=O)=O)cc3)n2C)c1
  5.0	13	4	1	-10	9935	-6
CCOC(=O)C(=NC(C)CC)NNc1cccc(C(F)(F)F)c1 (stereo not drawn)
  0.4	5	10	-7	-15	2364	11
CCOC(=O)C1CCN(c2c(NCCN3CCN(c4ccccc4)CC3)c(=O)c2=O)CC1
  2.6	0	3	-2	-38	5439	2
O=C(COC(=O)/C=C/c1ccccc1Cl)NCCc1ccc(Cl)cc1Cl
  4.4	10	5	-3	-18	2558	-13
CCCCC(O)(CCCC)C(=O)NNc1ccccc1
  1.8	-6	-8	3	-4	2544	7
O=C1Nc2ccccc2/C1=C/c1cccnc1
  2.5	-2	2	-14	-10	2160	-2
CN(CCNC(=O)C1CCN(c2ncnc3c2nc2n3CCCCC2)CC1)Cc1ccccc1
  1.8	-11	-7	9	2	4005	-6
Cc1ccccc1N1CCN(C2CCCN(C(=O)c3cn4cccc(C)c4n3)C2)CC1 (stereo not drawn)
  5.7	7	6	3	-1	6013	6
O=S(=O)(c1ccc(OCC(O)CN2CCN(c3ccccc3O)CC2)cc1)N1CCOCC1 (stereo not drawn)
  3.2	8	4	5	-18	6086	8
COc1ccc(CCC(=O)N2CCN(S(=O)(=O)c3ccc(OC(F)(F)F)cc3)CC2)cc1
  8.8	6	-1	9	-20	3427	·
C=CCn1c(O)c(C(CC)=Nc2cccc(C(F)(F)F)c2)c(=O)[nH]c1=O
  2.7	0	9	13	-18	4737	-12
COc1ccc(CCN2C(=NC(=O)CC(C)C)SC3CS(=O)(=O)CC32)cc1 (stereo not drawn)
  -0.9	8	0	-2	-20	11906	-4
CCNCCNC(=O)c1c(O)c2ccccc2n(CC)c1=O
  3.4	22	4	6	8	8137	2
CCN=c1scc(-c2ccc(F)cc2)n1/N=C/c1ccccn1
  ·	·	·	·	-62	4491	-1

(cont.)
Order of values – Sa RN4220 lethal	Mtb hypoxia rep	Mtb hypoxia rep growth	ugtP null kill	PrP UTR inh	Bead autofluor	BJeLR viability
O=C(O)C1CCCN1C(=O)C1CCN(S(=O)(=O)c2cccc(C(F)(F)F)c2)CC1 (stereo not drawn)
  2.8	13	3	6	-30	?	·
O=C(Nc1ccc(NC(=O)c2ccncc2)cc1)c1ccncc1
  0.7	12	2	10	·	·	-1
O=C(CSc1ccccc1)Nc1ccc(N2CCOCC2)cc1
  -2.0	11	14	6	-15	10396	-3
C(=C\c1ccccc1)/CSc1nnc(-c2cccnc2)n1Cc1ccco1
  3.5	14	4	0	-17	23450*	1
CCN(CC)C(=O)Cn1cc(S(=O)(=O)CC(=O)Nc2ccc(OC)c(OC)c2)c2ccccc21
  2.5	-1	3	6	-1	5771	4
COc1ccc(CC(=O)N2CCOCC2)cc1OC
  3.3	3	0	-1	-11	2410	3
O=C(Nc1ccc(F)cc1)c1ccc2[nH]c(=O)c(=O)[nH]c2c1
  2.2	6	4	7	-3	5591	2
CN1CCN(C(=O)C2=C[C@@H](C3CC3)C[C@@H](OCc3ccc(CO)cc3)O2)CC1
  ·	·	·	·	-22	3557	-11
C=CCn1c(N)cc(=O)nc1SCC(=O)Nc1cccc2ccccc12
  0.7	·	·	-1	-9	4458	5
CN(C)CCCN(C(=O)CCc1ccccc1)c1nc2ccc(Cl)cc2s1
  20	21	20	-19	-13	2529	14
Fc1ccccc1-c1nnc2n1N=C(c1ccc(OC(F)F)c(OCC3CC3)c1)CS2
  7.1	0	9	2	7	3007	·
COc1ccccc1C=NNC(=O)C(C)Cn1cnc2ccccc21 (stereo not drawn)
  2.7	4	8	8	·	·	·
CCOC(=O)c1cc(-c2ccccc2)n(CC(=O)Nc2cc(OC)cc(OC)c2)c1C
  -5.4	4	2	-3	-14	2359	-4
Cc1cc(C(=O)Nc2ccccc2C)on1
  0.9	-7	-7	-2	13	3039	3
CC(=O)N1CCCc2cc(S(=O)(=O)N3CCCC(C(=O)N4CCN(c5cc(C)ccc5C)CC4)C3)ccc21 (stereo not drawn)
  -1.4	-7	10	-8	12	6172	9

(next part)
Order of values – Sa RN4220 lethal	Mtb hypoxia rep	Mtb hypoxia rep growth	ugtP null kill	PrP UTR inh	Bead autofluor	BJeLR viability
CCN(C(=O)CSc1ncccc1C(=O)OC(C)C)c1cccc(C)c1
  1.6	6	3	14	-29	10582	1
CN1COc2ccc3ccccc3c2C1
  3.7	10	-5	7	-23	1970	-3
CCOC(=O)C1=C(COC(=O)CNS(=O)(=O)c2ccc(NC(C)=O)cc2)NC(=O)NC1C (stereo not drawn)
  0.9	5	5	-3	-1	2984	·
CC(=O)Nc1ccc(S(=O)(=O)Nc2cc([N+](=O)[O-])ccc2C)cc1
  25	-1	0	-6	-6	3507	6
CCN(CC(=O)Nc1ccc(OC)cc1)C(=O)COc1cccc2c1OC(C)(C)C2
  ·	·	·	·	14	4621	-6
Cc1ccc(S(=O)(=O)CCC(=O)OCC(=O)N(C)C2CCS(=O)(=O)C2)cc1 (stereo not drawn)
  -0.9	4	-3	1	-4	?	-4
CC(C)Cc1nc(N2CCCCC2)c(C#N)c2c1CCC2
  1.8	·	·	86*	-4	4520	4
CCC(C)N(C(=O)CSc1ncnc2c1cnn2-c1ccccc1)C1CCS(=O)(=O)C1 (stereo not drawn)
  1.5	0	-7	-1	-6	5064	1
Cc1c(C(=O)N2CCCC2)oc2ccc(Br)cc12
  4.0	8	4	-2	2	5722	-1
Cc1ccsc1C(=O)NNC(=O)C1CC=CCC1C(=O)O (stereo not drawn)
  -0.3	21	9	-3	-13	2446	-2
Cc1noc(C)c1S(=O)(=O)Nc1ccc(C(C)C)cc1
  6.8	17	2	1	-24	5839	3
CCOc1cc(C(=O)OCc2ccc(OC)cc2)ccc1OCC(=O)N1CCOCC1
  7.7	4	2	14	-4	?	·
CC(NC(=O)c1ccco1)c1cccc2ccccc12 (stereo not drawn)
  4.7	·	·	1	-20	22307*	-14
c1ccc(Nc2nc(-c3ccccc3)nc3ccccc23)cc1
  -14	0	13	30	-6	3134	-1
Cn1cnnc1SCC(=O)Nc1ccc(Cl)cc1
  3.0	17	12	12	-9	3766	9

Grouped by structure, those above with bromine
Order of values – Sa RN4220 lethal	Mtb hypoxia rep	Mtb hypoxia rep growth	ugtP null kill	PrP UTR inh	Bead autofluor	BJeLR viability
CC1(C)CC(=O)C(Br)=C(O)C1
  5.0	12	-2	0	-6	3975	·
Cc1c(C(=O)N2CCCC2)oc2ccc(Br)cc12
  4.0	8	4	-2	2	5722	-1

Next entries
Order of values – Sa RN4220 lethal	Mtb hypoxia rep	Mtb hypoxia rep growth	ugtP null kill	PrP UTR inh	Bead autofluor	BJeLR viability
Oc1ccccc1-c1cc(-c2ccccc2)no1
  -4.1	·	·	-13	-152	5129	-3
CCOC(=O)C1=C(C)NC(C)=C(C(=O)OCC)C1C(=O)OCC(N)=O
  3.3	1	6	5	-9	3251	3
COC(=O)CNC(=O)C(Cc1ccccc1)NS(=O)(=O)c1ccc2c(c1)c(=O)n(C)c(=O)n2C (stereo not drawn)
  6.7	1	-7	4	-33	4470	0
Cc1cccn2c(=O)c3cc(C(=O)NCCc4ccccc4)sc3nc12
  -4.3	8	8	6	-25	5715	-4
Cc1c(Br)c(C(=O)NNC(=O)c2ccc(C(C)(C)C)cc2)nn1C
  1.1	-4	2	9	-14	5263	1
COc1ccc2c(c1)[nH]c1c(N3CCSCC3)ncnc12
  5.1	20	14	-8	-8	3701	15
c1ccc(CN(Cc2ccccc2)Cc2nnc(-c3cc4ccccc4[nH]3)s2)cc1
  -7.0	7	11	-5	-26	3860	·
O=C(c1cc(F)c(F)cc1Cl)N1CCN(S(=O)(=O)c2cccs2)CC1
  1.0	8	0	10	-26	?	·
COc1cccc(NS(=O)(=O)c2cc3[nH]c(=O)c(=O)[nH]c3cc2C)c1
  1.4	0	4	6	-2	5558	7
CN(C)CCN(C(=O)c1cccc(N2C(=O)CCC2=O)c1)c1nc2ccc(Br)cc2s1
  1.2	11	12	4	-20	5610	-2
CC(=O)Nc1ccc(C(=O)OCCC(C)C)cc1
  3.3	-7	7	-2	20	5659	-7
O=C(COC(=O)c1ccc(Cl)nc1)Nc1cc(S(=O)(=O)N2CCCCC2)ccc1Cl
  5.5	9	12	3	-1	4352	-1
CC(C)[C@H]1C(=O)O[C@@H]2CCN3CC=C(COC(=O)[C@](C)(O)[C@]1(C)O)[C@H]23
  4.1	2	4	7	-5	3386	0
CCSc1cc(C)nc2c(-c3ccc(Cl)cc3)c(C)nn12
  9.5	9	3	7	-11	20908*	21
O=C(CSc1nncs1)N1CCN(S(=O)(=O)c2ccccc2)CC1
  6.5	-1	12	4	-46	3852	6

(list continues)
Order of values – Sa RN4220 lethal	Mtb hypoxia rep	Mtb hypoxia rep growth	ugtP null kill	PrP UTR inh	Bead autofluor	BJeLR viability
CCOC(=O)C(=O)Nc1ccc(OCc2ccccc2)cc1
  5.9	18	19	8	-18	3897	-5
CCCc1cc(=O)[nH]c(SCC(=O)Nc2ccc(OC(F)F)cc2)n1
  0.8	2	-5	1	-4	3245	-1
COc1ccc(F)cc1S(=O)(=O)Nc1cc2c3c(c1)CC(=O)N3CCC2
  4.6	5	7	2	-27	3901	7
Cc1ccc2c(c1)c1c(n2CC(O)CNC(C)(C)C)CCCC1 (stereo not drawn)
  3.8	·	·	-8	0	6416	·
Cc1ccc(S(=O)(=O)Nc2cccc(CP(=O)(c3ccccc3)c3ccccc3)c2)cc1
  6.7	14	5	6	-10	4590	21
O=S(=O)(c1ccc2ncn(O)c2c1)N1CCOCC1
  2.6	10	-5	4	-14	4578	15
COc1ccccc1OCC(=O)NC1CCCCCC1
  1.9	·	·	10	0	9006	6
O=C(OCCNc1nc(-c2ccccc2)nc2ccccc12)c1cccnc1
  0.1	-11	8	-19	1	2035	-6
O=C(NCCSc1ccccc1)c1ccccc1
  1.0	·	·	6	-127	·	1
CN(C)S(=O)(=O)c1cccc(NC(=O)c2cc(=O)[nH]c(=O)[nH]2)c1
  4.0	7	-4	7	-20	3775	-7
Cc1[nH]c2ccccc2c1C(C#N)(C#N)C1C(=O)c2ccccc2C1=O
  6.4	·	·	6	-8	4706	12
